Calb FLC – C. albicans growth modulation with fluconazole; C. albicans CaCi-2 (fluconazole-resistant clinical isolate) + fluconazole, Alamar Blue growth, 48 h; growth inhibition, % (concentration not given with the values); 0.57% of 300,000 active; AID 1979;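 active = most replicates above 75%; inconclusive = exactly half above 75%; inactive = most below 75%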;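 note: all wells also contain fluconazole at 8 µg/ml as a sub-toxic cotreatment; 0% = median of DMSO wells and 100% = median of geldanamycin control wells; wells of about 8 µL received 7.5 nL stock; the first replicate is given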
HNF4A DNA FP – change in binding of human HNF4 alpha to DNA. P41235. HNF4a-FITC DNA binding, fluorescence polarization, 1 h. activity change, % at 10 µM. 0.3% of 360,000 active. AID 1224865; in the data active = activity change above about 30%, passing the limit was not always enough;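 note: controls were the assay level and a saturating level of protein; the project sought stronger binding though the title names inhibitors; some compounds called inactive have numbers as strong as hits; positive values seem to mean higher polarization but the record does not say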
Target sequence (P41235 whole entry, looked up): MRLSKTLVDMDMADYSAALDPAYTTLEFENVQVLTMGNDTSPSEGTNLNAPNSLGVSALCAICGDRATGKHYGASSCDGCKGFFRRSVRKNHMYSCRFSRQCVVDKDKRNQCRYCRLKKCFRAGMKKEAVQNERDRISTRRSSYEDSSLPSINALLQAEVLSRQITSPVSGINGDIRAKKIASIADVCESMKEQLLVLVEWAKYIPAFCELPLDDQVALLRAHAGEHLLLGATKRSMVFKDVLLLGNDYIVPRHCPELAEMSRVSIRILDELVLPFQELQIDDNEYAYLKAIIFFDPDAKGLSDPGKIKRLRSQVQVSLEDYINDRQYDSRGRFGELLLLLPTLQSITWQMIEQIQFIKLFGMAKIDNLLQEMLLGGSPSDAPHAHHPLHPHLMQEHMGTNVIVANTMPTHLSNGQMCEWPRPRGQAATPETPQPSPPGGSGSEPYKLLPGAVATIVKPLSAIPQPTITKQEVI
LANA-H2B inh – blocks KSHV LANA binding to histone H2A/H2B; cell-free LANA-H2A/H2B peptide, fluorescence polarization; inhibition, % (no concentration beside the values); 0.6% of 320,000 active; in the data active = inhibition mostly above about 10%, no sharp cut-off; inactive = mostly below about 6.7%;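 note: stock transfer was 7.5 nL into about 10 µL; 0% = median of vehicle wells and 100% = median of positive control wells; one replicate is shown; the record names a cut of 25% in any replicate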
Beta2AR agonist – agonists of human beta-2 adrenergic receptor inducing internalization. Am2.2-beta2AR cells, FAP receptor internalization, flow cytometry; reference of the scale not given here. P07550. 0.43% of 340,000 active. AID 504454. response, % (concentration not given with the values);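 active = response above a set limit, near 3 SD of response in nonfluorescent compounds, cut at about 42% in these data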;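 note: stock transfer was 100 nL into about 11 µL; a reference agonist was the positive control; negative values mostly stem from fluorescent compounds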
Target sequence (P07550 whole entry, looked up): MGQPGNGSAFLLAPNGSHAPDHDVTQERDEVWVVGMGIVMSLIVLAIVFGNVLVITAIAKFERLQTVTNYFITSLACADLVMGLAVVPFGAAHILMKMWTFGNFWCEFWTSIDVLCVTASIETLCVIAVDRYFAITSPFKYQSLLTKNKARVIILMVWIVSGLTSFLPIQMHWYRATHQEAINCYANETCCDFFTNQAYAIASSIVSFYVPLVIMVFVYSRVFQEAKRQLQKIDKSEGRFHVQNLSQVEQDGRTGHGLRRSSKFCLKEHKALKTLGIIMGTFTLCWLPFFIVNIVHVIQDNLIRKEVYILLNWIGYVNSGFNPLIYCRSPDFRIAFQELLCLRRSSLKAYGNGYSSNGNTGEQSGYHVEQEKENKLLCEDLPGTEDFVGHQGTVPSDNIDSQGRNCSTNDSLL
RanGTP-Imp inh – disruptors of Ran-importin-beta complex formation – biochemical, FRET, CFP-Ran, YFP-importin-beta, homogeneous, primary screen; cell-free CFP-Ran/YFP-importin-beta FRET ratio; inhibition, % (concentration not given with the values); 1.1% of 300,000 active; AID 2216;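 active = most replicates above 15%; inconclusive = exactly half above 15%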;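 note: 0% = DMSO wells and 100% = Ran loaded with GDP instead of GTP; wells of about 40 µL received 100 nL stock; the first replicate is given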
Vif A3G – inhibitors of Vif binding to APOBEC3G peptide, primary screen, biochemical, TR-FRET, GST-Vif 1-94, biotin-A3G peptide, dose response retest (AID 1117319) | TR-FRET GST-Vif / biotin-A3G peptide binding; higher % means a stronger effect; test concentration not given here; strong numbers were not always called active | 0.57% of 260,000 active | inhibition, %; hits with a dose series show IC50 in µM;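 active = above the screen mean plus three standard deviations and confirmed in dose response; inconclusive = results disagree or hit not tested in dose response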;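 note: Vif residues 1-94 fused to GST binding biotinylated APOBEC3G peptide 110-148; 0% = full assay without inhibitor and 100% = GST in place of GST-Vif; retest series ran down from 100 µM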
ALR H2O2 inh – blocks human ALR sulfhydryl oxidase activity | P55789 | purified ALR, DTT oxidation, H2O2 HRP-luminol luminescence | inhibition, % (test concentration not listed) | 3.8% of 290,000 active | AID 485317;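 active = mean and each replicate at 75% or more; inconclusive = only one of the two met; inactive = neither met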;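 note: stock transfer was 7.5 nL into about 7.5 µL; 0% = neutral wells and 100% = wells with inactivated enzyme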
Target sequence (P55789 whole entry, looked up): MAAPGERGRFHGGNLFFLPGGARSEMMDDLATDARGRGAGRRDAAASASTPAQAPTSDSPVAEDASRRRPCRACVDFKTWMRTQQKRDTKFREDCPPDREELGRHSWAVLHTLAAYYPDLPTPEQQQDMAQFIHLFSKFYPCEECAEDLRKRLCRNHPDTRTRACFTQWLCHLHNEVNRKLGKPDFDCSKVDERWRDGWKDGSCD
* hit, by the source's call; ? = inconclusive; . = not tested or not shown.

Results follow in this order: Calb FLC, HNF4A DNA FP, LANA-H2B inh, Beta2AR agonist, RanGTP-Imp inh, Vif A3G, ALR H2O2 inh
- CC(=O)Nc1ccc(S(=O)(=O)Nc2nnc(CC(C)(C)C)s2)cc1
→ -2, 4.0, 0.1, 1, 1.9, 4%, 5
- COc1ccc(CCn2c(Br)nc3c2c(=O)[nH]c(=O)n3C)cc1
→ 0, -1.1, 8.4, -7, 0.9, 0%, 3
- COc1ccc(Nc2nc(Cl)nc(NCc3ccco3)n2)c(OC)c1
→ 3, -2.2, -2.8, 14, -1.9, -8%, 3
- N#Cc1ccc(NCCc2ccccn2)c([N+](=O)[O-])c1
→ -6, -2.5, -2.6, 1, -0.4, -3%, .
- O=Cc1ccc(OCc2cccc(C(F)(F)F)c2)cc1O
→ -45, -1.8, 1.4, -2, ., 8%, -13
- O=C(CSc1nc2c(c(=O)n1-c1ccc(F)cc1)SCC2)N1CCCC1
→ -9, 5.2, -3.0, 2, 4.4, 18%, -9
- COC(=O)C1=C(C(=O)OC)[C@@H]2N(C)c3ccccc3[C@@]23C[C@@H](C(=O)OC)N(C(=O)c2cccs2)C3=N1
→ -11, 3.7, -1.1, -1, -3.5, ., -3
- COc1ccc(C2=Nn3c(nnc3-c3ccccc3F)SC2)cc1OCC1CC1
→ ., 1.9, 3.0, 9, ., ., 3
- Fc1ccc(NC(=S)Nc2ccc(Cl)cc2Cl)cc1
→ -27, ., -1.4, ., 4.0, 3%, -8
- COc1cccc(C2=CC(=O)C[C@H](c3ccc(F)cc3)C2)c1OC
→ ., 0.3, 0.4, -3, ., ., -2

Sorted by value in LANA-H2B inh (smallest number first): 3 from the list above.
smiles | LANA-H2B inh
COc1ccc(Nc2nc(Cl)nc(NCc3ccco3)n2)c(OC)c1 | -2.8
COC(=O)C1=C(C(=O)OC)[C@@H]2N(C)c3ccccc3[C@@]23C[C@@H](C(=O)OC)N(C(=O)c2cccs2)C3=N1 | -1.1
COc1cccc(C2=CC(=O)C[C@H](c3ccc(F)cc3)C2)c1OC | 0.4

Next part.
Results follow in this order: Calb FLC, HNF4A DNA FP, LANA-H2B inh, Beta2AR agonist, RanGTP-Imp inh, Vif A3G, ALR H2O2 inh
- Cc1c(NC(=S)NC(=O)c2cccc3ccccc23)cccc1C(=O)O
→ 4, 2.6, -1.7, -1, -6.2, ., 2
- Cc1ccc(/C=C/C(=O)OCC(=O)Nc2ccccc2Sc2ccccc2)cc1
→ -1, 0.0, -2.9, 11, 0.1, -1%, 9
- Cc1oc(-c2ccccc2F)nc1CS(=O)(=O)CC(=O)N1CCN(Cc2ccccc2)CC1
→ 3, -4.0, 5.2, 8, 0.8, 6%, -3
- COc1ccccc1C(=O)N/N=C1/NC(=O)CC(C(=O)Nc2ccccc2)S1 (centres undefined)
→ 2, -2.3, -0.9, -5, 3.6, ., .
- O=C1CCCc2c1cc(-c1ccccc1)n2-c1ccccc1
→ -5, 0.9, -4.1, -4, ?, -9%, -3
- O=C(CCCc1nc2ccccc2s1)N1CCN(c2ccccc2)CC1
→ 1, -3.8, 4.0, 2, 4.9, -5%, 55
- O=C(O)/C=C/C(=O)Nc1ccc(SC(F)(F)C(F)(F)C(F)(F)F)cc1
→ -18, -0.8, -0.8, 5, 3.9, -1%, .
- CN1C(=O)C(C)(C)c2cc(S(=O)(=O)N3CCCC(C(=O)NCc4ccccc4Cl)C3)ccc21 (centres undefined)
→ -4, 2.4, 3.3, 23, 8.4, ., -10
- CCCCn1c(N)c(N(CCOC)C(=O)COc2ccc(C(C)=O)cc2)c(=O)[nH]c1=O
→ -6, -0.9, 15, -6, 0.7, 0%, -7
- Cc1cccc(NC(=O)COC(=O)[C@@H]2CCCN2C(=O)c2cccs2)c1
→ ., 1.0, 6.1, 2, ., -6%, -6
- Cc1ccc(OCCOC(=O)c2nc3nccc(C)n3n2)cc1
→ 5, 2.3, -2.8, -15, -1.0, ., -2
- CC1(C)Cc2noc(N)c2C(C)(C)N1O
→ 0, -0.7, 2.8, -23, -3.5, 26%, 9
- CCOc1ccccc1OCCC(=O)OCC(=O)c1ccc[nH]1
→ -1, -2.8, 0.0, -8, -0.9, 9%, -2
- COc1ccc(Cc2nc(-c3cccs3)no2)cc1OC
→ -10, 2.1, 0.0, -5, -1.3, -3%, -2
- Cc1cc(C)n2nc(/C(C#N)=C/c3ccccc3)c(C#N)c2n1
→ ., 3.4, ., -5, ., -1%, .
- CSc1cccc(NC(=O)CC2Oc3ccccc3NC2=O)c1 (centres undefined)
→ -3, 3.9, -2.6, -2, -4.5, -3%, 1
- Brc1cc2c(cc1C1Nc3ccccc3C3C=CCC31)OCO2 (centres undefined)
→ -1, -21, 4.4, 4, 0.8, ., 2
- Cc1ccccc1NN1C(=O)C=CC1=O
→ -6, -2.8, -0.1, 3, -0.5, 7%, -3
- COc1ccccc1[C@H]1C(c2cccc(C)c2)=NN(c2ccccc2)[C@@H]1CO
→ ., 13, ., 6, ., 8%, .
- CSc1nc(Oc2ccc(Cl)cc2)c2sccc2n1
→ -1, -2.1, -4.7, -10, 3.7, -3%, -25
- [C-]#[N+][C@H](O[C@@H]1O[C@H](CO)[C@@H](O)[C@H](O)[C@H]1O)c1ccccc1
→ 9, 7.2, -3.9, 0, -3.6, ., -11
- COC(=O)[C@@]12CCCN1[C@H](c1ccc(-c3cccc(Cl)c3)cc1)[C@H]1C(=O)N(C)C(=O)[C@H]12
→ -2, 0.0, 8.6, 4, -1.8, ., -5
- CCCn1c(SCC(=O)NC2CCCC2)nnc1-c1cccnc1
→ 0, 3.3, -17, 10, ?, ., 0
- CNc1nc(C)nc(N/N=C/c2ccccc2)n1
→ 11, -0.2, 5.9, -4, -0.9, ., .
- O=S(=O)(Cc1ccccc1)Oc1ccccc1
→ 8, -0.1, -1.3, -9, 2.9, ., -6
- Cc1ccccc1C1CC(=O)Oc2cc(O)ccc21 (centres undefined)
→ ., -34, ., 17, ., 2%, .
- CCCNC(=O)Cn1cnc2sc(C(=O)Nc3ccc4c(c3)OCO4)c(C)c2c1=O
→ -6, -0.3, 1.5, -6, -3.5, 5%, -9
- CCOc1ccc(NC(=O)N(CCN(C)C)C(C)c2cccnc2)cc1 (centres undefined)
→ -2, -1.8, 0.1, -1, -1.5, 3%, .
- O=c1cc(O)nc(SCc2ccccc2)[nH]1
→ -2, 3.3, -1.6, 1, -2.0, ?, 98*
- O=C(Nc1ccccc1NC(=O)c1c(F)cccc1F)c1c(F)cccc1F
→ -9, 2.9, -3.5, -5, 2.1, 3%, 5
- Cc1cc(NC(=O)C(C)SCC(=O)Nc2cc(C(F)(F)F)ccc2N2CCCCC2)no1 (centres undefined)
→ 23, 5.3, 2.4, 5, -1.5, -2%, -20
- Cc1ccc(N2C(=O)CC(Nc3ccc(Cl)c(S(=O)(=O)N(C)C)c3)C2=O)c(C)c1 (centres undefined)
→ 0, 4.0, -1.7, 0, 5.5, 10%, -3
- CCOC(=O)Nc1ccccc1C(=O)Nc1cc(C)cc(C)c1
→ -13, -1.4, 5.6, -19, 0.6, 20%, -36
- O=C1CC(SCc2nc3ccccc3[nH]2)C(=O)N1c1ccc(Cl)cc1 (centres undefined)
→ 4, 2.2, -1.4, 5, 1.7, 0%, 19
- CCCc1c(C)c2ccccc2[nH]c1=O
→ -5, -2.0, -4.1, -5, 6.2, -2%, 1
- c1ccc(C2Oc3ccccc3C3CC(c4cccs4)=NN32)cc1 (centres undefined)
→ -7, 20, -0.5, 9, -1.1, ., 98*
- O=C(Nc1ccc2nn(-c3ccccc3)nc2c1)c1cccs1
→ 3, 4.0, -0.2, -16, 5.3, -7%, -15
- Clc1ccc(CSc2nnc(/C=C/c3ccccc3)o2)cc1
→ 1, -2.7, 2.4, -9, -0.8, -4%, .
- CCOC(=O)c1[nH]c(C)c(CCC(=O)OC)c1C
→ 10, 0.9, 2.2, 2, 0.8, 5%, -16
- N#C/C(=C/c1cn(CC(=O)O)c2ccccc12)C(=O)NCc1ccccc1
→ -6, 1.1, -2.8, -2, 23*, -2%, 16
- CCOc1ccccc1NC(=O)c1nc(S(=O)(=O)Cc2cccc(C)c2)ncc1Cl
→ 5, -0.4, -1.5, 18, 0.9, ., -9
- O=C(NCC(=O)N1CCCC(C(F)(F)F)C1)c1ccccc1Br (centres undefined)
→ -2, -0.6, ., -3, 3.4, 5%, .
- O=C(NCc1ccc2c(c1)OCO2)C12CC3CC(CC(C3)C1)C2
→ ?, 0.8, -0.8, 12, 0.1, 2%, -1
- CCN(C[C@H]1N[C@@](CC)(C(=O)OC)[C@H]2C(=O)N(Cc3ccccc3)C(=O)[C@@H]12)S(=O)(=O)c1ccc(C(C)(C)C)cc1
→ ., 4.4, 4.8, 1, ., -3%, .
- Cc1cc(-c2cc(-c3ccc(Cl)cc3)nc(N)c2C#N)co1
→ 1, 9.3, -4.2, -3, 11, 12µM*, -21
- O=C(Cn1cnc2c(nnn2Cc2ccc(Cl)cc2)c1=O)NCC1CCCO1 (centres undefined)
→ -2, -0.7, -3.9, -15, 5.2, 10%, -1
- COc1cc(/C=N/N2CCCCC2)cc([N+](=O)[O-])c1O
→ -16, 0.3, 6.6, -1, 3.9, ., 98*
- CCOC(CNc1ncnc2c1cnn2C)OCC
→ ?, -1.6, 0.0, -1, ?, -4%, -3
- O=C(CCNS(=O)(=O)c1ccccc1)N1CCN(C(c2ccccc2)c2ccccc2)CC1
→ -4, 0.3, 0.1, 4, 2.8, ., -16
- Cc1ccc(-n2nnnc2-c2cccc(C)c2)cc1
→ -11, 0.9, -0.7, -2, 4.9, 16%, .

Next results
Results follow in this order: Calb FLC, HNF4A DNA FP, LANA-H2B inh, Beta2AR agonist, RanGTP-Imp inh, Vif A3G, ALR H2O2 inh
- CCN(c1ccccc1)S(=O)(=O)c1ccc(C(=O)NCCCN2CCOCC2)cc1
→ ., 6.9, 0.9, -9, ., 1%, 1
- CC(=O)C1=C(O)C(=O)N(c2cc(C(C)(C)C)on2)C1c1ccc(C(C)C)cc1 (centres undefined)
→ 35, -0.9, -3.8, 4, 5.0, 4%, 22
- COc1ccc(-c2csc(NC(=O)COC(=O)c3ccc(Br)o3)n2)cc1
→ -12, ., 2.2, ., 3.6, -6%, 54
- Cc1cccc(NC(=O)Nc2ccccc2[N+](=O)[O-])n1
→ 1, 2.1, -6.5, -4, 3.8, -15%, -2
- COc1ccccc1-c1cn[nH]c1-c1ccc(OCc2ccc(F)cc2)cc1O
→ -6, 2.8, -3.8, -1, 6.3, -5%, .
- C#CCOCCOCCOCCNc1nc(N2CCN(C(=O)[C@H]([C@@H](C)CC)n3cc([C@@H](N)Cc4ccc(O)cc4)nn3)CC2)nc(N2CCN(C(=O)[C@H](Cc3cc4ccccc4[nH]3)n3cc([C@@H](N)C(C)CC)nn3)CC2)n1 (some centres undefined)
→ 11, ., -5.4, ., 4.3, 2%, -9
- O=[N+]([O-])c1cc(Cc2ccccc2)cc(C=Nc2ccc(N3CCOCC3)cc2)c1O
→ -8, -2.1, 0.1, 15, -4.4, 24%, 97*
- CS(=O)(=O)c1ccc(N)c(SSc2cc(S(C)(=O)=O)ccc2N)c1
→ -8, 7.5, -4.3, 3, -0.5, ., 99*
- CCOc1cccc(C(=O)Nc2nc(-c3ccc(S(=O)(=O)N4CCOCC4)cc3)cs2)c1
→ -10, -0.9, 2.8, 15, 4.8, -17%, -25
- COc1ccc(CN(CC(=O)NC2CCCCC2)C(=O)CCC(=O)Nc2nccs2)cc1
→ -3, 1.8, -1.5, 1, 3.5, -5%, -3
- CCCNC(=S)Nc1ccc(F)cc1F
→ -23, 1.4, -0.8, 3, 7.9, -12%, 1

Quoted from the listing.
Result for CS(=O)(=O)c1ccc(N)c(SSc2cc(S(C)(=O)=O)ccc2N)c1 in HNF4A DNA FP: 7.5
Result for CCN(c1ccccc1)S(=O)(=O)c1ccc(C(=O)NCCCN2CCOCC2)cc1 in ALR H2O2 inh: 1
